Screening data (PubChem)
Beta2AR agonist = human beta-2 adrenergic receptor agonism by FAP. hit rate 0.43% among 340,000. P07550. Am2.2-beta2AR cells, FAP receptor internalization, flow cytometry; reference of the scale not given here. response, % (concentration not given with the values);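 active means response above a set limit, near 3 SD of response in nonfluorescent compounds, cut at about 42% in these data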;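 further: stock transfer was 100 nL into about 11 µL; a reference agonist was the positive control; negative values mostly stem from fluorescent compounds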
ALR inh = human ALR oxidase inhibition via reduced H2O2; P55789; purified ALR, DTT oxidation, H2O2 HRP-luminol luminescence; inhibition, % (test concentration not listed); hit rate 3.8% among 290,000; AID 485317;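 active means mean and each replicate at 75% or more; inconclusive means only one of the two met; inactive means neither met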;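 further: stock transfer was 7.5 nL into about 7.5 µL; 0% = neutral wells and 100% = wells with inactivated enzyme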
rRNA inh HTS = inhibits bacterial ribosomal RNA function over humanized ribosomes; GFP signal change (wild-type ribosome), % (test concentration not listed); AID 720706; E. coli WT GFP vs humanized-ribosome RFP mutants, fluorescence, 24 h; hits give low values; DMSO median 0, no signal -100; hit rate 1.6% among 350,000;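 active means significant combined selectivity score with lowered wild-type GFP, culture density cut under 30%, mutant RFP and density less affected; inactive means any of these conditions unmet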; further: one replicate is shown; some compounds called inactive have numbers as strong as hits
Beta cell apopt = blocks beta cell apoptosis | INS-1E cytokine-induced death, ATP luminescence, 48 h; percent of positive-control rescue, neutral wells zero | protection from apoptosis, % (concentration not given with the values) | hit rate 0.8% among 300,000 | AID 435005;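 active means all replicates at 75% or more, or half of them and the mean; inconclusive means half reach 75% but not the mean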;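 further: 0% = cytokine-treated negative control wells and 100% = positive control rescue; higher means more ATP so stronger rescue from cytokine killing; wells of about 40 µL received 100 nL stock; the first replicate is given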
T cruzi repl = blocks replication of Trypanosoma cruzi; hit rate 1.4% among 300,000; inhibition, % (test concentration not listed); T. cruzi beta-gal in NIH3T3, luminescence, 90 h;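 active means mean inhibition across valid replicates above about 55%, limit read from the data; inconclusive means mean below that limit but half or more replicates reach it; inactive means mean below it, under half of replicates reach it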;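 further: signal also drops with host cell toxicity which is not excluded here; 0% = plate median of DMSO wells and 100% = zero luminescence signal; higher percent means less beta-gal luminescence so fewer parasites; stock transfer was 50 nL into about 50 µL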
A1 inh = inhibitors of the anti-apoptotic protein A1, read as caspase activation. caspase activation, % (concentration not given with the values). MEF A1-2A-BIM cells, Caspase-Glo 3/7 luminescence, 3 h; percent of clofoctol response, vehicle zero. hit rate 0.066% among 330,000;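 active means over half of replicate activation scores above 10%, or exactly half above 10 with the replicate mean above 10; inconclusive means replicate mean below 10 yet half the replicates above 10; inactive means over half of replicates below 10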;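 further: wells of about 30 µL received 50 nL stock; many hits fall short of the cut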
Calb FLC = C. albicans growth modulation with fluconazole. C. albicans CaCi-2 (fluconazole-resistant clinical isolate) + fluconazole, Alamar Blue growth, 48 h. growth inhibition, % (no concentration beside the values). hit rate 0.57% among 300,000;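 active means most replicates above 75%; inconclusive means exactly half above 75%; inactive means most below 75%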;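 further: all wells also contain fluconazole at 8 µg/ml as a sub-toxic cotreatment; 0% = median of DMSO wells and 100% = median of geldanamycin control wells; wells of about 8 µL received 7.5 nL stock; the first replicate is given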
LANA-H2B inh = blocks KSHV LANA binding to histone H2A/H2B; Q9QR71; cell-free LANA-H2A/H2B peptide, fluorescence polarization; inhibition, % (concentration not given with the values); hit rate 0.6% among 320,000; in the data active means inhibition mostly above about 10%, no sharp cut-off; inactive means mostly below about 6.7%;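 further: stock transfer was 7.5 nL into about 10 µL; 0% = median of vehicle wells and 100% = median of positive control wells; one replicate is shown; the record names a cut of 25% in any replicate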
Target sequence (Q9QR71 whole entry, looked up): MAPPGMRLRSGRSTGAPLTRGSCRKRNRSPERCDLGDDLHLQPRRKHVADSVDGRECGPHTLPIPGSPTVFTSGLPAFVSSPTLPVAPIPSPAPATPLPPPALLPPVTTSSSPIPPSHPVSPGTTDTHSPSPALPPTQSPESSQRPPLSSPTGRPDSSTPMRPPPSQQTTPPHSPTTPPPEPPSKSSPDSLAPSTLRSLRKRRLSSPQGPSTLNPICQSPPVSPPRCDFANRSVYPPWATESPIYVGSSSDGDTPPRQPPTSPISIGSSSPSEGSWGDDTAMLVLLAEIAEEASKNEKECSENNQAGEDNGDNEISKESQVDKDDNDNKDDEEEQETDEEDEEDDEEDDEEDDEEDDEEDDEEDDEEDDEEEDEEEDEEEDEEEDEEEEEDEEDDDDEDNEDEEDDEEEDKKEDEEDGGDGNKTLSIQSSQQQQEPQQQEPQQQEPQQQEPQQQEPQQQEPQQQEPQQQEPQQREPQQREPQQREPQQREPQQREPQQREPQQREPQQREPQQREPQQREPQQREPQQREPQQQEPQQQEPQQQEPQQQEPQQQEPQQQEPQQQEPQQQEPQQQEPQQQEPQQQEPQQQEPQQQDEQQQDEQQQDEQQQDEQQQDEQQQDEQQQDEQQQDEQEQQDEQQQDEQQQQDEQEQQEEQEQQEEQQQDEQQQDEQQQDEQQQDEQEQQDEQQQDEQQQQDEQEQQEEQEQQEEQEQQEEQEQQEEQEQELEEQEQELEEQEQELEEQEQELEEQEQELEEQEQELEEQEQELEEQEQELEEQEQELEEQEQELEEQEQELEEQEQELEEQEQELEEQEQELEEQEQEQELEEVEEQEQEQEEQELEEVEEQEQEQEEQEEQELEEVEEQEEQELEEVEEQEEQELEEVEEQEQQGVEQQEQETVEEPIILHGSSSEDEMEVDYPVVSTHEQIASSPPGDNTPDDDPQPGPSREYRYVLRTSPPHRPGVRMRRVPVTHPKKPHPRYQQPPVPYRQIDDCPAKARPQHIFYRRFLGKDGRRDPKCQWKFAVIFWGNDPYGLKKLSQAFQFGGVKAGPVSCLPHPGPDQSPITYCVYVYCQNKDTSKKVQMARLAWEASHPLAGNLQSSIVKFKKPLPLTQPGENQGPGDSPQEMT
rRNA inh HTS OD600 = further read-out of rRNA inh HTS, marked with its call; OD600 change, %; measured here: OD600 growth;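 optical density of the mix in the first replicate; 0 = DMSO median and -100 = no signal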
rRNA inh HTS RFP = further read-out of rRNA inh HTS, marked with its call; RFP signal change, %; measured here: RFP humanized mutant strains;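 first replicate; 0 = DMSO median and -100 = no signal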
The depositor's hits bear a star; ? = inconclusive; nt = not tested or not shown.

mol	Beta2AR agonist	rRNA inh HTS OD600	Beta cell apopt	rRNA inh HTS RFP	T cruzi repl	rRNA inh HTS	LANA-H2B inh	ALR inh	A1 inh	Calb FLC
O=[N+]([O-])c1ccc(CNC2CCCc3ccccc32)cc1 (centres undefined)	3	10	-13	0.1	18	16	3.1	-20	0.6	-2
COc1cc2c(cc1OC)CN(C(=O)COc1ccc(C)c(C)c1)CC2	1	nt	-1	nt	56*	nt	0.2	-35	1.1	22
S=C1NCCOCCNC(=S)NCCOCCOCCN1	0	14	2	6.6	-5	17	-2.5	0	-0.2	-25
O=C1c2ccccc2C(=O)N1c1cc([N+](=O)[O-])ccn1	0	4	3	-1.9	-7	2	0.6	-24	-0.1	6
FC(F)(F)c1ccccc1NC(=S)Nc1cccc(Cl)c1	9	-5	3	1.6	-7	-10	-12	3	-0.4	-50
Clc1ccc(OCCCn2ccnc2)c(Br)c1	-4	nt	-8	nt	53	nt	-2.3	-1	0.3	?
Cc1cccc([C@@H]2[C@@H]3C(=O)N(Cc4ccccc4)C(=O)[C@@H]3[C@]3(Cc4ccccc4)C(=O)N(c4ccc(C(F)(F)F)cc4)C(=O)N23)c1	-4	3	10	-8.3	21	-1	2.9	-7	-0.7	15
COCC1CCN(C(=O)c2cc(COc3ccc(-n4cncn4)cc3)on2)CC1	-9	3	-4	-0.3	2	2	-1.8	-2	1.0	8
O=C(CCCc1ccccc1)NCc1ccc(Cl)cc1	-8	-36	2	-4.4	3	-26	-2.4	1	1.3	1
Cc1nc2sc(C(c3ccc(F)cc3)N3CCOCC3)c(O)n2n1 (centres undefined)	-11	nt	nt	nt	-11	nt	-4.0	-10	1.9	4
COc1ccccc1-c1ccc(/C=N/O)o1	-1	-15*	5	-1.0*	1	-34*	-7.7	52	-0.4	6
CC(C(=O)Nc1ccccc1-c1ccccc1)N1CCN(C(=O)c2ccccc2)CC1 (centres undefined)	-7	-9	0	0.2	15	-16	-2.9	nt	2.8	1
COc1cc(S(=O)(=O)N2CCOCC2)ccc1NC(=O)COC(=O)C12CC3CC(CC(C3)C1)C2	3	nt	-6	nt	-3	nt	-0.3	-17	-0.2	-5
COCCNC(=O)CCCn1c(=O)c2ccccc2n(Cc2ccccc2C#N)c1=O	10	7	-7	1.4	2	10	1.9	-6	0.7	-5
Cc1cc(SCC(=O)OC/C(O)=C(\C#N)c2nc3ccccc3[nH]2)c(C)cc1Br	7	6	0	4.1	-8	3	-1.2	38	-0.2	0
COc1ccc(C(=O)OCc2cc3cccc(C)c3[nH]c2=O)cc1	4	nt	-1	nt	-6	nt	-15	-1	0.2	8
CC(C)NC(=O)c1ccccc1NC(=O)CS(=O)(=O)Cc1ccccc1	2	3	-3	-8.0	-18	6	-3.8	1	0.5	-4
CCOC(=O)c1cnc(SC)nc1Sc1ccccc1Cl	10	nt	nt	nt	nt	nt	-1.3	-12	0.6	4
COc1cccc(C(=O)NCC(=O)NNc2ncnc(N)c2[N+](=O)[O-])c1	-1	15	-5	0.3	-10	14	2.2	-4	0.0	-7
O=C(NCC(c1cccs1)N1CCOCC1)c1ccc(Br)o1 (centres undefined)	2	nt	1	nt	-40	nt	0.0	-2	1.0	1

Rewritten with values under each structure: part of the list above.
Every second line gives: Beta2AR agonist | rRNA inh HTS OD600 | Beta cell apopt | rRNA inh HTS RFP | T cruzi repl | rRNA inh HTS | LANA-H2B inh | ALR inh | A1 inh | Calb FLC
O=[N+]([O-])c1ccc(CNC2CCCc3ccccc32)cc1 (centres undefined)
  3 | 10 | -13 | 0.1 | 18 | 16 | 3.1 | -20 | 0.6 | -2
COc1cc2c(cc1OC)CN(C(=O)COc1ccc(C)c(C)c1)CC2
  1 | nt | -1 | nt | 56* | nt | 0.2 | -35 | 1.1 | 22
S=C1NCCOCCNC(=S)NCCOCCOCCN1
  0 | 14 | 2 | 6.6 | -5 | 17 | -2.5 | 0 | -0.2 | -25
O=C1c2ccccc2C(=O)N1c1cc([N+](=O)[O-])ccn1
  0 | 4 | 3 | -1.9 | -7 | 2 | 0.6 | -24 | -0.1 | 6
FC(F)(F)c1ccccc1NC(=S)Nc1cccc(Cl)c1
  9 | -5 | 3 | 1.6 | -7 | -10 | -12 | 3 | -0.4 | -50
Clc1ccc(OCCCn2ccnc2)c(Br)c1
  -4 | nt | -8 | nt | 53 | nt | -2.3 | -1 | 0.3 | ?
Cc1cccc([C@@H]2[C@@H]3C(=O)N(Cc4ccccc4)C(=O)[C@@H]3[C@]3(Cc4ccccc4)C(=O)N(c4ccc(C(F)(F)F)cc4)C(=O)N23)c1
  -4 | 3 | 10 | -8.3 | 21 | -1 | 2.9 | -7 | -0.7 | 15

(continued)
mol	Beta2AR agonist	rRNA inh HTS OD600	Beta cell apopt	rRNA inh HTS RFP	T cruzi repl	rRNA inh HTS	LANA-H2B inh	ALR inh	A1 inh	Calb FLC
COc1ccc(/C=C/C(=O)O)cc1S(=O)(=O)NC1CCS(=O)(=O)C1 (centres undefined)	0	11	0	-0.8	-7	10	-3.1	-10	-0.2	1
CC(C)(CNC(=O)CO/N=C1/C=C2CCC3C(C(O)C[C@@]4(C)C3CC[C@]4(O)C(=O)CO)[C@@]2(C)CC1)C(O)C(=O)O (some centres undefined)	0	17	-5	-0.6	10	13	-7.1	-3	-0.2	-6
COCCOC(=O)C1=C(C)NC(=O)NC1c1cccc2ccccc12 (centres undefined)	-2	14	-7	-0.7	4	8	-8.2	1	-2.2	-25
Cc1ccc(C)c(NC(=O)C(Sc2nnc(-c3cccs3)o2)c2ccccc2)c1 (centres undefined)	5	nt	0	nt	nt	nt	3.6	13	-1.4	nt
Cc1ccccc1-c1cc(C(=O)NCC2CC2)n(CC2CC(c3cccnc3)=NO2)n1 (centres undefined)	-9	-3	7	-12	nt	-8	0.9	10	-0.9	nt
O=c1[nH]c(CSc2nnc(-c3ccccc3)n2-c2ccccc2)nc2ccccc12	-1	3	-8	3.8	5	3	3.2	-2	0.1	51
COc1ccc(Cc2n[nH]c(=S)o2)cc1	2	10	-4	2.2	8	10	1.1	25	0.1	-5
Cc1nc2sc(C(c3cccs3)N3CCN(Cc4ccccc4)CC3)c(O)n2n1 (centres undefined)	-4	-6	-3	0.9	3	0	4.2	-8	-1.7	-1
CCCCOc1ccc(N=Cc2ccc[nH]2)cc1	9	8	2	0.6	34	8	-3.7	nt	-1.2	-11
Cc1ccc2cc(CN(c3ccccc3)S(=O)(=O)c3ccccc3)c(=O)[nH]c2c1	-3	-6	0	0.8	4	-5	3.7	-4	-0.3	2
Nc1ncnc2nc(SCCC(=O)O)[nH]c12	4	9	-3	3.6	13	20	2.0	-1	0.4	1
O=C(O)CCNC(=O)c1ccc(NC(=O)C(c2ccccc2)c2ccccc2)cc1	-9	3	-1	-0.2	-12	-1	1.8	-2	1.0	3
Cc1c(C2Nc3ccccc3C(=O)N2O)cnn1C (centres undefined)	2	nt	1	nt	-7	nt	-0.3	-11	0.1	1
N/C(=N\O)C1COc2ccccc2O1 (centres undefined)	1	nt	-3	nt	2	nt	-0.5	-16	0.1	1
CCCCC(=O)NC(c1ccco1)c1cc(Cl)c2cccnc2c1O (centres undefined)	-5	-65	104*	-7.0	63*	-32	2.5	-26	-0.7	112*
CC(=O)Oc1oc(-c2ccccc2)nc1/C=N/c1ccccn1	64*	8	-6	-2.7	-14	12	8.4	40	0.7	3
COc1ccccc1NC(=O)c1c[nH]c2ccccc12	0	-4	-3	-0.8	2	-9	0.8	-9	-1.5	?
O=C(NC1=NCCS1)c1csc2ccccc12	-7	nt	1	nt	-12	nt	0.4	98*	-5.4	-2
COC(=O)c1cccc(NC(=O)c2ccc3c(c2)C(=O)N(Cc2cccnc2)C3=O)c1C	14	-6	0	-1.0	-4	-2	11	nt	-0.1	-4
COCc1[nH][nH]c(=O)c1C=Nc1ccccc1	6	nt	2	nt	-24	nt	5.7	-4	0.9	-8
Cc1ccc(C)c(Nc2c(F)c(F)c(F)c(F)c2C(=O)O)c1	-2	-55	-8	-12	-12	-37	-12	41	0.8	17
O=C(CN1C(=O)S/C(=C\c2cc(Cl)c(O)c(Cl)c2)C1=O)Nc1ccccc1	14	-11	-4	-6.0	24	-9	-5.1	-34	0.4	25
CCCc1c(C(=O)N/N=C/c2ccc(C)s2)nnn1-c1nonc1N	2	3	-5	1.0	19	4	2.7	-4	0.2	39
Fc1cccc(Cl)c1/C=N/Nc1ccccn1	1	2	-5	-4.4	8	6	4.1	-38	-4.2	-2
COC(=O)c1cccc(NC(=O)C2COc3ccccc3O2)c1C (centres undefined)	10	nt	-4	nt	-6	nt	-1.5	-11	0.5	12
COc1cccc(NC(=O)C(c2ccccc2)N2CCNC(=O)C2)c1 (centres undefined)	-6	nt	-10	nt	-7	nt	-1.7	-25	-0.6	24
COc1ccc(NC(=O)C2CCN(S(=O)(=O)c3ccc4c(c3)CC(C)N4C(C)=O)CC2)c(OC)c1 (centres undefined)	-6	-1	0	1.3	9	-11	-1.8	-2	0.1	-5
CC(C)Oc1ccc(/C=C(/NC(=O)c2ccccc2)C(=O)NC(Cc2ccccc2)C(=O)O)cc1 (centres undefined)	10	3	-6	-1.8	-14	2	-3.4	4	0.6	0
O=C1CC(N2CCN(S(=O)(=O)c3ccccc3F)CC2)C(=O)N1c1ccccc1Cl (centres undefined)	2	-23	-9	2.8	nt	-6	4.0	-1	-0.8	nt

A portion of the library; rates above refer to the full screens.
